From PubChem
UUG fidelity – yeast start codon fidelity modulation | actives 0.13% (n = 350,000) | S. cerevisiae UUG-firefly luciferase reporter, luminescence/redox ratio | AID 602363 | activity score, % at 18.7 µM;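 active means replicate mean at a twofold rise or more, about +100% in these data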;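 further: firefly luciferase made from a UUG start codon reports start codon fidelity; reporter light over untreated wells divided by growth signal over untreated wells; some hits fall short of that in this replicate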
* marks the source's active call; other numbers are inactive results.

SMILES	UUG fidelity
COc1ccc(NC(=O)N(C)C[C@H]2Oc3ccc(NC(=O)CCCN(C)C)cc3C(=O)N([C@@H](C)CO)C[C@@H]2C)cc1	-0.4
Cc1cccc(S(=O)(=O)N2C[C@@H](O)COC[C@H]3O[C@@H](CC(=O)NCCCN4CCOCC4)CC[C@@H]32)c1	-7.3
COCC(=O)N1CCCCN2[C@@H](CO)[C@H](c3ccc(C#Cc4ccc(OC)cc4)cc3)[C@@H]2C1	24.7
Cn1cnc(S(=O)(=O)N2CCCCN3[C@H](C2)[C@H](c2ccc(C#CC4CCCC4)cc2)[C@@H]3CO)c1	-12.8
CN(C)CC(=O)Nc1ccc2c(c1)[C@H]1C[C@H](CC(=O)NCc3cccnc3)O[C@H](CO)[C@H]1O2	-10.2
O=C(Nc1ccccc1)N1C[C@@H]2[C@H](c3ccccc31)[C@@H](CO)N2Cc1ccc(F)cc1	-10.5
CN1C(=O)c2cc(NC(=O)NC3CCCC3)ccc2OC[C@@H]2O[C@@H](CC(=O)O)CC[C@H]21	2.0
COc1cccc(S(=O)(=O)N2CC[C@@H]3[C@H](CO)Nc4ccc(C5=CCCCC5)cc4[C@@H]32)c1	-7.5
O=C(Cc1ccccc1)N1CC[C@@H]2[C@H]1c1cc(-c3cccc(F)c3)ccc1N[C@@H]2CO	-22.0
COc1ccc(S(=O)(=O)N(C)C[C@@H]2Oc3ccc(NC(=O)Nc4ccc(F)cc4)cc3C(=O)N([C@@H](C)CO)C[C@H]2C)cc1	-5.2
O=C(c1cccnc1)N1C[C@@H]2[C@H](c3ccccc31)[C@@H](CO)N2C(=O)Nc1ccccc1F	2.8
COc1ccc(S(=O)(=O)N2CCCCN3[C@H](CO)[C@H](c4ccc(C#CCC(C)C)cc4)[C@@H]3C2)cc1	-6.6
Cn1cnc(S(=O)(=O)N2CCCCN3[C@H](CO)[C@H](c4ccc(-c5ccccc5)cc4)[C@H]3C2)c1	9.8
COc1ccc(S(=O)(=O)N(C)C[C@H]2Oc3ccc(NC(=O)NC4CCCCC4)cc3C(=O)N([C@H](C)CO)C[C@H]2C)cc1	-4.2
CS(=O)(=O)N1CCCCN2[C@H](C1)[C@H](c1ccc(C3=CCCC3)cc1)[C@@H]2CO	-5.7
C[C@H](O)C#Cc1ccc([C@H]2[C@@H](CO)N3CCCCN(S(=O)(=O)Cc4ccccc4)C[C@@H]23)cc1	10.6
C[C@@H]1CN([C@@H](C)CO)C(=O)c2cc(NC(=O)Nc3ccc(F)cc3)ccc2O[C@@H]1CN(C)Cc1ccc2c(c1)OCO2	14.4
CN1CCN(C(=O)C[C@@H]2C[C@@H]3c4cc(NS(=O)(=O)c5ccc(F)cc5)ccc4O[C@@H]3[C@@H](CO)O2)CC1	3.0
CCC(=O)N1C[C@H]2[C@@H](c3ccccc31)[C@@H](CO)N2Cc1ccccc1F	1.7
CCCNC(=O)Nc1ccc2c(c1)C(=O)N(C)[C@H]1CC[C@@H](CC(=O)NCc3ccccc3)O[C@H]1CO2	-5.3
Cc1cccc(-c2ccc([C@H]3[C@@H](CO)N4CCCCN(S(=O)(=O)c5cccs5)C[C@H]34)cc2)c1	9.8
Cc1cc(C(=O)Nc2cccc3c2O[C@@H](CN(C)C(=O)Nc2ccc(F)cc2)[C@H](C)CN([C@@H](C)CO)C3=O)n(C)n1	-0.5
C[C@@H]1CN([C@H](C)CO)C(=O)c2cccc(NS(=O)(=O)c3cccs3)c2O[C@@H]1CN(C)C(=O)Nc1ccc(C(F)(F)F)cc1	-10.1
C[C@H](O)C#Cc1ccc([C@H]2[C@H](CO)N3CCCCN(S(=O)(=O)c4ccccc4)C[C@@H]23)cc1	15.9
CO[C@H]1CN(C)C(=O)c2cc(NC(=O)c3ccccc3F)ccc2OC[C@H](C)N(C(=O)c2ccccc2F)C[C@@H]1C	14.7

Additional compounds
SMILES	UUG fidelity
C[C@H](CO)N1C[C@H](C)[C@@H](CN(C)S(=O)(=O)c2ccc(-c3ccccc3)cc2)OCc2cnnn2CCCC1=O	3.4
CCCNC(=O)N1[C@H](CNC(=O)c2ccc(F)cc2)[C@@H](c2ccccc2)[C@@H]1CO	-6.8
CCS(=O)(=O)Nc1ccc2c(c1)C(=O)N(C)C[C@H](OC)[C@H](C)CN(C(=O)NC(C)C)[C@H](C)CO2	9.1
CO[C@H]1CN(C)C(=O)c2cc(NC(C)=O)ccc2OC[C@@H](C)N(Cc2ccncc2)C[C@H]1C	-3.3
O=C(C[C@@H]1CC[C@H]2[C@@H](COC[C@@H](O)CN2Cc2ccc(F)cc2)O1)NCCc1ccccc1	-4.7
CCCC#Cc1ccc([C@@H]2[C@H](CO)N3CCCCN(C(=O)c4ccc5c(c4)OCO5)C[C@@H]23)cc1	-2.4
C[C@@H]1CN([C@@H](C)CO)C(=O)c2cc(NS(=O)(=O)c3ccc(Cl)cc3)ccc2O[C@H]1CN(C)Cc1ccc(Oc2ccccc2)cc1	3.2
C[C@H](CO)N1C[C@H](C)[C@H](CN(C)Cc2ccc(C(=O)O)cc2)Oc2ccc(NC(=O)NC3CCCCC3)cc2C1=O	4.7
COc1ccccc1C(=O)N1C[C@@H]2[C@H](c3ccccc31)[C@H](CO)N2C(=O)C1CCCCC1	27.8
C[C@@H]1CN([C@H](C)CO)C(=O)c2cc(NS(=O)(=O)c3cccs3)ccc2O[C@@H]1CN(C)C(=O)Nc1ccc(C(F)(F)F)cc1	-15.8
CC(=O)N1CCCCN2[C@H](CO)[C@@H](c3ccc(-c4ccc(C)cc4)cc3)[C@H]2C1	-2.0
C/C=C/c1ccc([C@@H]2[C@@H](CO)N(C(=O)CC)[C@H]2CN(C)C(=O)C2CC2)cc1	11.5
C[C@@H]1CN([C@H](C)CO)C(=O)c2cc(NC(=O)Nc3cccc4ccccc34)ccc2O[C@H]1CN(C)Cc1ccc(-c2ccccc2)cc1	1.3
O=C(C1CCC1)N1CCCCN2[C@H](CO)[C@@H](c3ccc(-c4cccc(F)c4)cc3)[C@H]2C1	-4.6
C[C@@H]1CN([C@H](C)CO)C(=O)c2cc(NC(=O)Nc3ccccc3)ccc2O[C@@H]1CN(C)Cc1ccc(C(=O)O)cc1	-8.0
C[C@H]1CN([C@@H](C)CO)C(=O)CCCn2nncc2CO[C@@H]1CN(C)C(=O)Nc1cccc(C(F)(F)F)c1	-4.9
CCC(=O)N1[C@@H](CO)[C@@H](c2ccccc2)[C@@H]1CNC(=O)CN1CCOCC1	-11.9
CO[C@H]1CN(C)C(=O)c2cc(NC(=O)NC(C)C)ccc2OC[C@H](C)N(Cc2ccccn2)C[C@H]1C	-22.5
C[C@H](CO)N1C[C@H](C)[C@@H](CN(C)C(=O)Nc2ccccc2)Oc2c(NC(=O)c3cnccn3)cccc2C1=O	-9.3
O=C(Nc1ccccc1F)N1C[C@@H]2[C@H](c3ccccc31)[C@@H](CO)N2C(=O)C1CCCC1	7.8
O=S(=O)(c1ccc(F)cc1)N1CCCCN2[C@H](C1)[C@@H](c1ccc(-c3ccccc3)cc1)[C@@H]2CO	6.2
C[C@H]1CN([C@@H](C)CO)C(=O)c2cccc(NC(=O)c3cnccn3)c2O[C@H]1CN(C)C(=O)Nc1ccc(C(F)(F)F)cc1	-1.3
CO[C@@H]1CN(C)C(=O)c2ccc(NC(=O)C3CC3)cc2OC[C@H](C)N(C(=O)Cc2ccccn2)C[C@H]1C	-9.5
C/C=C/c1ccc([C@@H]2[C@@H](CO)N3CCCCN(S(=O)(=O)c4ccc(OC)cc4)C[C@@H]23)cc1	-2.3
COc1cccc(-c2ccc3c(c2)[C@@H]2[C@@H](CCN2C(=O)NC2CCCC2)[C@H](CO)N3C)c1	11.5

Given field by field: part of the list above
Compound: COc1ccccc1C(=O)N1C[C@@H]2[C@H](c3ccccc31)[C@H](CO)N2C(=O)C1CCCCC1
- UUG fidelity: 27.8
Compound: C[C@@H]1CN([C@H](C)CO)C(=O)c2cc(NS(=O)(=O)c3cccs3)ccc2O[C@@H]1CN(C)C(=O)Nc1ccc(C(F)(F)F)cc1
- UUG fidelity: -15.8

The listing continues:
SMILES	UUG fidelity
CO[C@H]1CN(C)C(=O)c2ccc(NC(=O)Nc3cc(F)ccc3F)cc2OC[C@@H](C)N(C(=O)c2ccccn2)C[C@H]1C	14.3
CS(=O)(=O)N1CCCCN2[C@H](CO)[C@@H](c3ccc(-c4cccc(C#N)c4)cc3)[C@@H]2C1	-7.5
COCC(=O)Nc1ccc2c(c1)OC[C@@H](C)N(C(=O)c1cnccn1)C[C@@H](C)[C@@H](OC)CN(C)C2=O	156.2*
COc1ccc(NC(=O)N2C[C@@H](O)COC[C@H]3O[C@H](CC(=O)NCc4ccccc4OC)CC[C@@H]32)cc1	6.7
O=C(NC[C@H]1N[C@H](CO)[C@@H]1c1ccc(C2=CCCCC2)cc1)c1ccccc1	-17.8
C[C@H](CO)N1C[C@H](C)[C@@H](CN(C)Cc2ccccc2C(=O)O)OCc2cn(nn2)CCCC1=O	-0.1
C[C@@H](NC(=O)[C@H]1[C@H](CO)[C@H]2Cn3c(cccc3=O)[C@@H]1N2C(=O)C1CCCC1)c1ccccc1	2.2
CN(C)C(=O)C[C@@H]1CC[C@H]2[C@@H](COC[C@H](O)CN2C(=O)C2CCOCC2)O1	0.0
C[C@H]1CN([C@@H](C)CO)C(=O)c2cc(NS(C)(=O)=O)ccc2O[C@H]1CN(C)C(=O)NC1CCCCC1	-4.8
C[C@H](CO)N1C[C@H](C)[C@@H](CN(C)C(=O)Nc2ccc(F)cc2)Oc2ccc(NC(=O)NC3CCCCC3)cc2CC1=O	20.3
CO[C@H]1CN(C)C(=O)c2ccc(NC(=O)Cc3ccccc3)cc2OC[C@@H](C)N(C(C)=O)C[C@H]1C	17.6
CCS(=O)(=O)N1CCCCN2[C@H](C1)[C@@H](c1ccc(-c3ccc(C(=O)N(C)C)cc3)cc1)[C@@H]2CO	-0.5
C[C@@H]1CN([C@H](C)CO)C(=O)c2cc(NC(=O)Nc3ccc(C(F)(F)F)cc3)ccc2O[C@H]1CN(C)C(=O)NC1CCCCC1	3.5
COc1ccc(CNC(=O)C[C@@H]2C[C@@H]3c4cc(NS(C)(=O)=O)ccc4O[C@@H]3[C@H](CO)O2)cc1	-1.0
COc1ccc(C(=O)N2C[C@H]3[C@@H](c4ccccc42)[C@H](CO)N3Cc2ccc(Cl)cc2)cc1	4.8
CC(=O)N1CC[C@@H]2[C@H]1c1cc(-c3cccc(F)c3)ccc1N[C@@H]2CO	-2.5
Cc1noc(C)c1S(=O)(=O)Nc1ccc2c(c1)C(=O)N([C@H](C)CO)C[C@@H](C)[C@H](CN(C)C(=O)Nc1ccc3c(c1)OCO3)O2	19.1
C[C@H](CO)N1C[C@H](C)[C@H](CN(C)Cc2ccc(C(=O)O)cc2)Oc2ccc(NC(=O)C3CCCCC3)cc2C1=O	-1.9
COc1ccc(S(=O)(=O)N(C)C[C@@H]2OCc3ccccc3-c3c(n(C)c4ccccc34)C(=O)N([C@H](C)CO)C[C@@H]2C)cc1	14.3
CO[C@@H]1CN(C)C(=O)c2cc(NC(=O)Nc3ccccc3F)ccc2OC[C@H](C)NC[C@@H]1C	-7.5
COc1ccccc1NC(=O)N1CCCCN2[C@H](CO)[C@H](c3ccc(-c4cccc(C#N)c4)cc3)[C@H]2C1	4.3
CO[C@H]1CN(C)C(=O)c2ccc(NC(=O)C3CC3)cc2OC[C@H](C)N(C(=O)CN2CCOCC2)C[C@H]1C	-1.1
CCC(=O)Nc1ccc2c(c1)C(=O)N(C)C[C@@H](OC)[C@@H](C)CN(C(=O)CC1CC1)[C@@H](C)CO2	-9.2
O=C(C[C@@H]1CC[C@@H]2[C@H](COC[C@@H](O)CN2Cc2ccccc2F)O1)NCc1ccccc1F	6.2
C[C@H]1CN([C@@H](C)CO)C(=O)c2cccc(NS(=O)(=O)c3ccc(Cl)cc3)c2O[C@@H]1CN(C)C(=O)Nc1ccccc1	8.0

With a hit mark in UUG fidelity, among the entries above:
SMILES	UUG fidelity
COCC(=O)Nc1ccc2c(c1)OC[C@@H](C)N(C(=O)c1cnccn1)C[C@@H](C)[C@@H](OC)CN(C)C2=O	156.2*

Reformatted: entries from further up
| structure | UUG fidelity |
| --- | --- |
| O=C(NC[C@H]1N[C@H](CO)[C@@H]1c1ccc(C2=CCCCC2)cc1)c1ccccc1 | -17.8 |
| C[C@H](CO)N1C[C@H](C)[C@@H](CN(C)Cc2ccccc2C(=O)O)OCc2cn(nn2)CCCC1=O | -0.1 |
| C[C@@H](NC(=O)[C@H]1[C@H](CO)[C@H]2Cn3c(cccc3=O)[C@@H]1N2C(=O)C1CCCC1)c1ccccc1 | 2.2 |
| CN(C)C(=O)C[C@@H]1CC[C@H]2[C@@H](COC[C@H](O)CN2C(=O)C2CCOCC2)O1 | 0.0 |

Carrying on:
SMILES	UUG fidelity
C[C@H](CO)N1C[C@H](C)[C@@H](CN(C)C)Oc2ccc(NC(=O)NC3CCCCC3)cc2CC1=O	-6.7
CN1c2ccc(Br)cc2[C@H]2[C@H](CCN2S(=O)(=O)c2ccccc2F)[C@H]1CO	-10.8
CCC(=O)N1CC[C@@H]2[C@H]1c1cc(-c3ccc(OC)cc3)ccc1N(C)[C@H]2CO	8.7
C[C@@H]1CN([C@@H](C)CO)C(=O)c2cccc(NC(=O)c3ccncc3)c2O[C@H]1CN(C)S(C)(=O)=O	-11.4
CCC(=O)N1CCCCN2[C@@H](CO)[C@@H](c3ccc(-c4ccc(F)cc4)cc3)[C@@H]2C1	7.7
COc1ccc(C#Cc2ccc([C@H]3[C@H]4CN(Cc5ccccc5F)CCCCN4[C@H]3CO)cc2)cc1	-5.3
C[C@H]1CN([C@@H](C)CO)C(=O)c2cccc(NC(=O)NC3CCCCC3)c2O[C@@H]1CN(C)S(=O)(=O)c1ccc(F)cc1	3.1
COc1ccccc1NC(=O)N1C[C@H]2[C@@H](c3ccccc31)[C@@H](CO)N2C(=O)C1CC1	-3.0
C/C=C/c1ccc2c(c1)[C@H]1[C@H](CCN1S(=O)(=O)c1ccccc1F)[C@H](CO)N2	-5.0
CN1c2ccc(-c3ccc(C#N)cc3)cc2[C@H]2[C@H](CCN2S(=O)(=O)c2cccc(F)c2)[C@H]1CO	5.6
CO[C@@H]1CN(C)C(=O)c2ccc(NC(C)=O)cc2OC[C@H](C)NC[C@H]1C	11.6

These rows are one share of the data; count on the stated rates, not on these rows.
